Resorufin fluor = resorufin region autofluorescence. Compound fluorescence, resorufin region 547/598 nm, buffer; stronger effect = higher value. max dye-equivalent concentration, M. actives 0.04% (n = 59,000); active = above 10 nM dye equivalent; inconclusive = 1 to 10 nM; inactive = 1 nM or less; a few of its hits are not listed in these tables; note: highest value over a series up to 38 µM
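Compounds in 100 mM Tris, pH 8.0, incubated 15 min at room temperature, then fluorescence read at 547 nm excitation/598 nm emission. Signal converted to dye-equivalent concentration via an on-plate six-point resorufin standard curve, per compound concentration.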
A647 autofl = compound autofluorescence in A647 spectral region; Compound fluorescence, A647 channel (570/671 nm), Tris buffer; max dye-equivalent concentration, M; 59,000 tested, under 10 active; AID 592; active means above 1 µM dye equivalent; inconclusive means 0.1 to 1 µM; inactive means 0.1 µM or less;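 note: values scaled relative to a standard on each plate; highest value over a series up to 38 µM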
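Fluorescence read (570 nm ex, 671 nm em) after 15 min RT incubation of compounds in 100 mM Tris buffer, pH 8.0; values expressed as dye-equivalent concentration against a six-point A647 standard series on each plate.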
A488 fluor = A488 region autofluorescence | actives 0.1% (n = 59,000) | max dye equivalency, M | compound autofluorescence, A488 spectral region, dye equivalency; stronger effect = higher value; active = above 10 nM dye equivalent; inconclusive = 1 to 10 nM; inactive = 1 nM or less; about half of its hits are not listed in these tables;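 note: highest value over a series up to 38 µM; compound alone in buffer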
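Intrinsic compound fluorescence is measured in 100 mM Tris buffer at pH 8.0 following 15 min incubation at room temperature. Intensities at 480 nm excitation/540 nm emission are calibrated to an on-plate A488 concentration series, giving dye-equivalent concentrations.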
AID923 = qHTS Assay for Allosteric/Competitive Inhibitors of Caspase-1: Spectroscopic Profiling in AFC Spectral Region | AID 923, 2007 | compound fluorescence, AFC spectral region (405/520 nm); almost no hit is shown here | Potency, µM (titrated, usually from 57.5 µM), without a hit: top-dose fluorescence increase, hits mostly activators | actives 1.1% (n = 75,000); active = well fitted activation curve with a large enough effect; inconclusive = small, poorly fitted or top-dose-only effect;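 note: potency is the fitted concentration of half-maximal effect; 0% is about no effect; scaled to a free AFC standard on each plate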
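Titrations up to 57 uM read every 20 sec for 3 min (405/520 nm) with 50 nM caspase 1 and 5 uM Ac-WEHD-AFC, pH 7.5 HEPES buffer. Fluorescence-vs-time intercept gave baseline, scaled against on-plate AFC standard.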
TSHR ag = TSH receptor (human) agonism | Potency, µM (titrated, usually from 57.1 µM), without a hit: top-dose activation, usual class: activators | actives 0.48% (n = 73,000) | HEK293-CNG-TSHR cells (CNG channel as cAMP sensor), membrane potential dye, cAMP; active = well fitted activation curve of enough size with the parental cells flat; inconclusive = any curve in the parental cells; inactive = parental cells flat and receptor cells flat or falling; note: potency is the fitted concentration of half-maximal effect; % of control where 0% means no effect; weak receptor curves with flat parental cells got no call and are not listed
Target sequence (P16473 whole entry, looked up): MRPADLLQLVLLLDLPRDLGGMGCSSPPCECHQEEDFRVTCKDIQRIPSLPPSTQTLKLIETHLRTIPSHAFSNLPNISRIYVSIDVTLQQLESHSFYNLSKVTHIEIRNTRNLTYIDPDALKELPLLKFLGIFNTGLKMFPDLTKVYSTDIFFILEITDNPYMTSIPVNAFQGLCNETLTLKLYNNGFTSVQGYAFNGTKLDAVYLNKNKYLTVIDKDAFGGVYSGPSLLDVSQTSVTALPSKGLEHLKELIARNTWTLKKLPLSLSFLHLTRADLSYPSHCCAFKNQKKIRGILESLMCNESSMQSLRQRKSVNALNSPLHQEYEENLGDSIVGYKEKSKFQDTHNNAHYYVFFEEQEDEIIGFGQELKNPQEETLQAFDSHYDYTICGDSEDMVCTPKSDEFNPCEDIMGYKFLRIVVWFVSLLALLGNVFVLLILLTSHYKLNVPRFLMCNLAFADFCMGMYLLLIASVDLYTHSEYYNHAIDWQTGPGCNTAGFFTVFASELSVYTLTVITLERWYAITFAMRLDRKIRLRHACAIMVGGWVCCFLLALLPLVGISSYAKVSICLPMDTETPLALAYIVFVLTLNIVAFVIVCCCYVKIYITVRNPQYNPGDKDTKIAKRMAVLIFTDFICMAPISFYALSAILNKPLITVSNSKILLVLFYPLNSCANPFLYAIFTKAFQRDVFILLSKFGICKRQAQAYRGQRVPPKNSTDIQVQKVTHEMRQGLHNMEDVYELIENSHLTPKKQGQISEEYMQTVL
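HEK 293 cells stably expressing TSHR and a cAMP-gated CNG channel; parental CNG-only cells as counterscreen. Cells preloaded 60 min with membrane potential dye plus 100 uM RO 20-1724, then compound 30 min; fluorescence read at 590 nm.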
Numbers without * were called inactive; [ ] = another dose, or the depositor's remark. Some of the compounds tested; rates above refer to the full screens.

`COc1ccc(-c2ccc(-c3noc(C)n3)c(OC)n2)cc1` gave Resorufin fluor inactive, A647 autofl 6.3e-09, A488 fluor inactive, AID923 2.8% and TSHR ag 3.2µM*.
CCOC(=O)C(NC(=O)Nc1cccc(C)n1)(OCC(F)(F)F)C(F)(F)F (centres undefined) was read as Resorufin fluor inactive, A647 autofl 3.3e-08, A488 fluor inactive, AID923 0.4% and TSHR ag -5%.
`CN1CCN(C(=O)CN(c2cccc(Cl)c2)S(=O)(=O)c2ccccc2)CC1` gave Resorufin fluor inactive, A647 autofl 2.3e-09, A488 fluor inactive, AID923 1.1% and TSHR ag 4%.
Screening CC(C)CNC(=O)NC1C(NC(=O)NCC(C)C)N(C)C(=O)N1C (centres undefined) returned Resorufin fluor inactive, A647 autofl 2.9e-08, A488 fluor inactive, AID923 -0.1% and TSHR ag 20%.
`CCC(=O)N1CCN(c2cc3c(cc2F)c(=O)c(C(=O)O)cn3CC)CC1` gave Resorufin fluor inactive, A647 autofl 1e-09, A488 fluor inactive, AID923 -0.6% and TSHR ag -3%.
`CCc1nccn1S(=O)(=O)c1ccc2ccc(C)cc2c1` gave Resorufin fluor inactive, A647 autofl 2e-08, A488 fluor inactive, AID923 -0.6% and TSHR ag inconclusive.
COc1ccc(N2C(=O)CC(Sc3ncn[nH]3)C2=O)c(OC)c1 (centres undefined) was read as AID923 4.7% and TSHR ag -5%[11.4 µM].
C=CCNC(N)=S was read as AID923 -1.5% and TSHR ag inconclusive.
`Cc1sc2c(c1C)c(=O)n(-c1ccccc1)c1nnc(C)n21` gave AID923 2.2% and TSHR ag -9%.
`COc1ccc(OC)c(-c2cc(C(=O)Nc3cc(C)on3)no2)c1` gave Resorufin fluor inactive, A647 autofl 1e-09, A488 fluor inactive, AID923 -1.3% and TSHR ag 5%.
`O=C(CCN1CCN(Cc2ccccc2)CC1)Nc1cccc(Cl)c1` gave Resorufin fluor inactive, A647 autofl 1e-09, A488 fluor inactive, AID923 1.1% and TSHR ag 1%.
`CN1C(=O)C2(Nc3ccccc3-c3nc4ccccc4n32)c2ccccc21` (centres undefined) gave Resorufin fluor inactive, A647 autofl 2.9e-08, A488 fluor inactive, AID923 0.7% and TSHR ag 22%.
O=C(NCc1ccco1)C(Cc1ccccc1)N1C(=O)C2C3C=CC(C3)C2C1=O (centres undefined) was read as Resorufin fluor inactive, A647 autofl 3.2e-08, A488 fluor inactive, AID923 -0.3% and TSHR ag 3%.
CCOc1ccc(S(=O)(=O)NCc2ccco2)c2ccccc12 was read as AID923 0.9% and TSHR ag inconclusive.
Screening O=C(O)c1c2c(nc3ccc(S(=O)(=O)N4CCC(C(=O)N5CCCCC5)CC4)cc13)CCCC2 returned AID923 7.3% and TSHR ag -22%.
For CNC(=O)CN(c1cccc(Br)c1)S(C)(=O)=O the results were Resorufin fluor inactive, A647 autofl 8.7e-09, A488 fluor inactive, AID923 -0.2% and TSHR ag 5%.
Screening O=C(CCc1ccccc1)Nc1c(F)c(F)c(F)c(F)c1F returned AID923 -2.1% and TSHR ag inconclusive.
For O=C(CSCC(=O)Nc1nccs1)Nc1ccccc1 the results were Resorufin fluor inactive, A647 autofl 1.6e-08, A488 fluor inactive, AID923 -0.2% and TSHR ag -3%.
For C=CCOc1ccc(C2/C(=C(\O)c3ccc(F)cc3)C(=O)C(=O)N2CCCN(C)C)cc1 (centres undefined) the results were Resorufin fluor inactive, A647 autofl 5.6e-08 and A488 fluor inactive.
`CC(NC(=O)Nc1nccs1)(C(F)(F)F)C(F)(F)F` gave Resorufin fluor inactive, A647 autofl 1.1e-08 and A488 fluor inactive.
For O=C(CSCCc1ccccn1)Nc1ccccn1 the results were Resorufin fluor inactive, A647 autofl 4.1e-08, A488 fluor inactive, AID923 1.1% and TSHR ag 19%.
`CC1=C(C)CC2C(=O)N(c3cccc4ccccc34)C(=O)C2C1` (centres undefined) gave AID923 -0.2% and TSHR ag 78%.
Cc1cc(C)c2c(C)nn(C3CCCCC3)c2n1 was read as Resorufin fluor inactive, A647 autofl 3.6e-09, A488 fluor inactive, AID923 -0.8% and TSHR ag 20%.
`CCOC(=O)Cc1csc(NC(=O)CSc2nnc(-c3ccncc3)n2Cc2ccco2)n1` gave Resorufin fluor inactive, A647 autofl 1e-09, A488 fluor inactive, AID923 0.6% and TSHR ag inconclusive.
For Cc1ccc(CN2CCNC(=O)C2CC(=O)O)o1 (centres undefined) the results were AID923 2.4% and TSHR ag 0%.
Screening Cc1ccc(Nc2nc(Oc3ccc(=O)[nH]n3)nc(N(C)C)n2)cc1 returned Resorufin fluor inactive, A647 autofl 2.6e-09, A488 fluor inactive, AID923 -0.4% and TSHR ag -11%.
Cc1cc(C)cc(N(CC(=O)NCc2ccc3c(c2)OCO3)C(=O)CCC(=O)Nc2ccccn2)c1 was read as Resorufin fluor inactive, A647 autofl 1.5e-08, A488 fluor inactive, AID923 0.2% and TSHR ag 9%.
CCCCN=C(C)C1=C(O)CSC1=O was read as AID923 3.4% and TSHR ag -13%.
O=C(O)C1C2CCCCC2=C2CCCCC2C1C(=O)O (centres undefined) was read as AID923 1.1% and TSHR ag 2%.
COCC(=O)N1CCC2(CC1)CN(C(c1ccccc1)c1ccccc1)C2 was read as Resorufin fluor inactive, A647 autofl 4.5e-09, A488 fluor inactive, AID923 -0.1% and TSHR ag 7%.
COc1ccccc1CN1CCCC2(CCN(C(=O)c3c(C)noc3C)CC2)C1 was read as Resorufin fluor inactive, A647 autofl 2.2e-08, A488 fluor inactive, AID923 -0.5% and TSHR ag 7%.
For CCOC(=O)C1C(=O)CC(O)(c2ccccc2)CC1c1ccccc1 (centres undefined) the results were Resorufin fluor inactive, A647 autofl 3.6e-08, A488 fluor inactive, AID923 0.5% and TSHR ag 16%.
Screening Cc1nc2ccccc2c(=O)n1/N=C/c1ccccn1 returned Resorufin fluor inactive, A647 autofl 6.6e-09, A488 fluor inactive, AID923 -0.7% and TSHR ag -3%.
Screening CCOC(=O)c1nnn(-c2nonc2N)c1CSc1ccc(C)cc1 returned Resorufin fluor inactive, A647 autofl 3.4e-08, A488 fluor inactive, AID923 -0.7% and TSHR ag inconclusive.
Screening c1cncc(CNc2c3c(nc4nnnn24)CCCC3)c1 returned Resorufin fluor inactive, A647 autofl 2.7e-08, A488 fluor inactive, AID923 1.4% and TSHR ag -3%.
`Cc1noc(NS(=O)(=O)c2cccc3c(N(C)C)cccc23)c1C` gave AID923 9.5% and TSHR ag inconclusive.
COc1ccc(N2C(C)=CS/C2=C(/C#N)c2nnc(N3CCOCC3)n2-c2ccccc2)cc1 was read as Resorufin fluor inactive, A647 autofl 2.9e-09, A488 fluor inactive, AID923 2.3% and TSHR ag 0%.
Screening O=C(NCCc1c[nH]c2ccccc12)c1c(Cl)nc2sccn12 returned Resorufin fluor inactive, A647 autofl 1.4e-08, A488 fluor inactive, AID923 0.9% and TSHR ag -1%.
For COc1ccc(S(=O)(=O)NC2CCCCC2)c(C)c1C the results were Resorufin fluor inactive, A647 autofl 4e-09, A488 fluor inactive, AID923 -1.2% and TSHR ag 16%.
Cn1c(=O)c2c(nc(Br)n2Cc2ccccc2Cl)n(C)c1=O was read as Resorufin fluor inactive, A647 autofl 1.6e-09, A488 fluor inactive, AID923 1.0% and TSHR ag inconclusive.
O=C(Nc1nc2c(s1)CCc1ccccc1-2)c1cccs1 was read as Resorufin fluor inactive, A647 autofl 1.2e-08, A488 fluor inactive, AID923 9.9% and TSHR ag -1%.
Screening O=C(c1ccco1)N1C(=O)c2cccc3c(S(=O)(=O)N4CCCC4)ccc1c23 returned Resorufin fluor inactive, A647 autofl 2.4e-08, A488 fluor inactive, AID923 -1.9% and TSHR ag -4%.
CN(C)CCCOC(=O)c1ccc(Cl)cc1Cl was read as Resorufin fluor inactive, A647 autofl 9.5e-08 and A488 fluor inactive.
For CCN1C(=O)/C(=C\N2CCN(c3ccccc3)CC2)SC1=S the results were Resorufin fluor inactive, A647 autofl 3.2e-08, A488 fluor inactive, AID923 6.5% and TSHR ag -2%.
For COC(=O)N1CCC[C@@]2(CCN(C(=O)Nc3cccc(F)c3)C2)C1 the results were Resorufin fluor inactive, A647 autofl 4.7e-09, A488 fluor inactive, AID923 3.0% and TSHR ag inconclusive.
Screening O=C1CC(c2ccco2)CC(O)=C1C=NCCO (centres undefined) returned AID923 1.6% and TSHR ag 7%.
COc1ccccc1NC(=O)N1CCN(c2cc(-c3ccccc3)nc3ncnn23)CC1 was read as Resorufin fluor inactive, A647 autofl 1e-09, A488 fluor inactive, AID923 1.1% and TSHR ag 9%.
Screening COc1ccc(CNC(=O)c2cc3c(C)nc4ccccc4c3o2)c(OC)c1 returned AID923 14% and TSHR ag inconclusive.
For CNc1ccnc(-c2c(C)noc2C)n1 the results were Resorufin fluor inactive, A647 autofl 7.5e-09, A488 fluor inactive, AID923 -3.1% and TSHR ag 6%.
Cc1cc(Nc2nnnn2-c2ccccc2)n(-c2ccc(Cl)cc2)n1 was read as Resorufin fluor inactive, A647 autofl 8e-09, A488 fluor inactive, AID923 -2.0% and TSHR ag 23%.
COc1ccc(NC(=O)N2CCCC3(CCN(C(C)=O)CC3)C2)cc1 was read as Resorufin fluor inactive, A647 autofl 1.6e-08, A488 fluor inactive, AID923 -1.8% and TSHR ag 3%.
Screening Cc1ccc(S(=O)(=O)N2CCN(C(=O)COC(=O)c3cc(C)oc3C)CC2)cc1 returned Resorufin fluor inactive, A647 autofl 2.6e-08, A488 fluor inactive, AID923 -1.4% and TSHR ag 8%.
O=C(CCCn1c(=O)[nH]c2ccsc2c1=O)NCc1cccs1 was read as Resorufin fluor inactive, A647 autofl 6.8e-09, A488 fluor inactive, AID923 0.4% and TSHR ag -1%.
`COc1ccc(CCNC(=O)Cn2nnc(-c3cccc(OC)c3OC)n2)cc1OC` gave Resorufin fluor inactive, A647 autofl 2.2e-08, A488 fluor inactive, AID923 -0.9% and TSHR ag 20%.
Screening CCNc1nc(Oc2ccc(C(=O)OCC)cc2)nc(SC)n1 returned AID923 4.2% and TSHR ag inconclusive.
For CCCNc1nc2c(c(=O)n(C)c(=O)n2C)n1CCC(C)C the results were Resorufin fluor inactive, A647 autofl 2.6e-08, A488 fluor inactive, AID923 0.8% and TSHR ag inconclusive.
CC(=O)N1CCC(O)(c2cccc(C(F)(F)F)c2)CC1 was read as Resorufin fluor inactive, A647 autofl 3.6e-09, A488 fluor inactive, AID923 0.0% and TSHR ag -1%.
COc1ccc(CNc2cc(-c3ccccc3CN(C)C)ncn2)c(OC)c1 was read as Resorufin fluor inactive, A647 autofl 1.7e-08, A488 fluor inactive, AID923 -0.3% and TSHR ag 22%.
COc1ccc(S(=O)(=O)N2CCN(CC(=O)Nc3ccc(F)c(F)c3)CC2)cc1 was read as Resorufin fluor inactive, A647 autofl 3.3e-08, A488 fluor inactive, AID923 -0.1% and TSHR ag 10%.
`CCCCCSc1nc(C)c(CC(=O)O)c(=O)[nH]1` gave Resorufin fluor inactive, A647 autofl 3.5e-08 and A488 fluor inactive.
`C1CN(c2nc3nonc3n3nnnc23)CCO1` gave Resorufin fluor inactive, A647 autofl 2.7e-08, A488 fluor inactive, AID923 0.8% and TSHR ag -5%.

4 entries already listed, sorted by number of heavy atoms, highest first:
`CN1CCN(C(=O)CN(c2cccc(Cl)c2)S(=O)(=O)c2ccccc2)CC1` gave Resorufin fluor inactive, A647 autofl 2.3e-09, A488 fluor inactive, AID923 1.1% and TSHR ag 4%.
Cn1c(=O)c2c(nc(Br)n2Cc2ccccc2Cl)n(C)c1=O was read as Resorufin fluor inactive, A647 autofl 1.6e-09, A488 fluor inactive, AID923 1.0% and TSHR ag inconclusive.
For COc1ccc(S(=O)(=O)NC2CCCCC2)c(C)c1C the results were Resorufin fluor inactive, A647 autofl 4e-09, A488 fluor inactive, AID923 -1.2% and TSHR ag 16%.
Screening O=C1CC(c2ccco2)CC(O)=C1C=NCCO (centres undefined) returned AID923 1.6% and TSHR ag 7%.

Screening results as filed in PubChem BioAssay.
